# Bioassay records as filed in PubChem.
# TRPML1 ag: qHTS for Agonists of the Human Mucolipin Transient Receptor Potential 1 (TRPML1); Mucolipin-1 (Homo sapiens), Q9GZU1; TRPML1-expressing cells, Ca2+ dye fluorescence, FDSS; host cell line not named in the record; reference of the full effect not given here; activation, % (no concentration beside the values); 0.12% of 410,000 active; AID 624414, 2012; in the data active = activation above about 50%; inconclusive = about 30% to 50%; inactive = below about 30%; note: 0% is about no effect; the text of the record puts the active cut at 80%
#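 Cells: TRPML1-DL, 1X Tet inducer, ~16 h at 37 degrees C/5% CO2. Dye: ABD Ca8 no-wash + quencher, 45-90 min RT. Read: 10 s baseline, compound add, 110 s agonist phase; 54-4 EC80 (4uM final), 110 s antagonist phase.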
# PINK1 expr mod: A Quantitative High throughput Screen to Identify Chemical Modulators of PINK1 Expression; PINK1 immunofluorescence, high-content cytometry, 24 h; 0.2% of 410,000 active; Potency, µM (top dose mostly 76.6 µM), for inactives: at the top dose activation (PINK1 increase), most hits filed as activators; active = well fitted activation curve with a large enough effect; inconclusive = small, poorly fitted or top-dose-only effect; inactive = flat fitted curve, though single readings scatter; cell line not stated here;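 note: potency is the fitted concentration of half-maximal effect; % of control where 0% means no effect; nearly all actives have a fitted effect of over 65% in size; a mitochondrial uncoupler was the plate control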
#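 Decision-based qHTS: stable cells, 24 h exposure to five compound concentrations, CCCP as control. Fixed cells stained for PINK1 plus nuclear, mitochondrial and cell markers, cytometer read.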
# TRPV1 PAM: HTS Assay for Compounds that Act as Potentiators of the Vanilloid Receptor 1 | potentiation, % at 8.33 µM | TRPV1-expressing cells, Fluo-8 calcium influx, capsaicin EC20 potentiation; host cell line not named in the record; control for the full effect not named in the record | AID 540277, 2011 | Transient receptor potential cation channel subfamily V member 1 (Homo sapiens), Q8NER1 | 0.02% of 320,000 active; active means potentiation above 80%; inconclusive means 30% to 80%; inactive means below 30%; note: 0% is about no effect
# Target sequence (Q8NER1 whole entry, looked up): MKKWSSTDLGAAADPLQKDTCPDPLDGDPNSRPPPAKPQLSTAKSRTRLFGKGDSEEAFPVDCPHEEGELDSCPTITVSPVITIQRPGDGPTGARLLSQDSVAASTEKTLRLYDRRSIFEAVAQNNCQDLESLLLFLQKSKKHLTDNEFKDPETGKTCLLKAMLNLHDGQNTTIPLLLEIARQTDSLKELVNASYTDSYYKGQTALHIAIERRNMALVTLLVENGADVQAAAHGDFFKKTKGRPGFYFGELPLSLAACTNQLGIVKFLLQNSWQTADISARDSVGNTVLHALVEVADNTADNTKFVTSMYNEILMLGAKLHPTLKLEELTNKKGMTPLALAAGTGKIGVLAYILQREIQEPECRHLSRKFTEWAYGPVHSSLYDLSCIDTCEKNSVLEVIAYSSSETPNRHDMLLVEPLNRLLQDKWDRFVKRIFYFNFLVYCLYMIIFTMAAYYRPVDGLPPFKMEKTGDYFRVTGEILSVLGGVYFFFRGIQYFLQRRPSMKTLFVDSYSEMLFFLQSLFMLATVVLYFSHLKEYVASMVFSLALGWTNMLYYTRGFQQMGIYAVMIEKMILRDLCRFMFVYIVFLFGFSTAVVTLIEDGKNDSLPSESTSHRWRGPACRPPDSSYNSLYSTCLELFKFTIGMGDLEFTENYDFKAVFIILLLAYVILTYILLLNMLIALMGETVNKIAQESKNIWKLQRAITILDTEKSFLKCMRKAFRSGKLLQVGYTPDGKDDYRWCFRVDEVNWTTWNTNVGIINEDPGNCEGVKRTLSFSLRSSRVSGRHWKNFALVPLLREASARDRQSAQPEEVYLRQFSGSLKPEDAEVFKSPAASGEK
#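 Cells expressing TRPV1 were dye-loaded with Fluo-8 and read kinetically: 10 s baseline, 3 min after compound (agonist portion), then 2 min after EC20 capsaicin (allosteric enhancer portion). Calcium-bound dye fluorescence at 480/520 nm.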
# Menin MLL FP FL: qHTS Assay for Inhibitors Targeting the Menin-MLL Interaction in MLL Related Leukemias: Competition With Fluorescein Labeled MLL-derived Peptide. FP activity change, % at 61.4 µM. 290,000 tested, under 10 active. AID 1766, 2009. Fluorescence polarization, fluorescein-MLL peptide displacement from menin; inconclusive = falling polarisation curve, or a change in total fluorescence; inactive = total fluorescence flat and polarisation flat or rising; no compound was filed as active; the % refers to the polarisation; negative = inhibition;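 note: % of control where 0% means no effect; inhibitors lower the polarisation; unlabelled MLL peptide was the positive control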
# TRPML1 blocker: qHTS for Inhibitors of the Human Mucolipin Transient Receptor Potential 1 (TRPML1); TRPML1-inducible cells, Ca2+ dye fluorescence, FDSS; stronger effect = lower value; inhibition of EC80 agonist-evoked calcium signal; Mucolipin-1 (Homo sapiens), Q9GZU1; AID 624415, 2012; 0.02% of 390,000 active; activity change, negative = inhibition, % (no concentration beside the values); in the data active means activity change below about -50%; inconclusive means about -30% to -50%; inactive means above about -30%;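 note: stimulus is agonist 54-4 at its EC80 concentration; % is set by controls: 0 for no effect and ±100 for the full control effect; compound concentration not given in the record; the text of the record puts the active cut at -80%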
#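 Tet-induced TRPML1-DL cells loaded with Ca8 no-wash calcium dye were read kinetically on FDSS. Compound addition was followed by EC80 agonist 54-4 (4 uM final); inhibition was read over 110 s.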
# ClpP mod: qHTS Assay for Activators of ClpP. ATP-dependent Clp protease proteolytic subunit (Bacillus subtilis (strain 168)), P80244. purified B. subtilis ClpP, FRET peptide cleavage, 20 min. Potency, µM (titrated, usually from 57.5 µM), inactives show at the highest dose activity change, negative = active. 1.9% of 340,000 active; active = well fitted falling curve with a large enough effect; inconclusive = small, poorly fitted or top-dose-only effect; inactive = no such curve, though single readings can be large or run the other way; note: potency is the fitted concentration of half-maximal effect; the source files actives as falling curves though it sought activators and does not explain the sign; nearly all actives have a fitted effect of over 65% in size; many hits overshoot -100%
# Target sequence (P80244 whole entry, looked up): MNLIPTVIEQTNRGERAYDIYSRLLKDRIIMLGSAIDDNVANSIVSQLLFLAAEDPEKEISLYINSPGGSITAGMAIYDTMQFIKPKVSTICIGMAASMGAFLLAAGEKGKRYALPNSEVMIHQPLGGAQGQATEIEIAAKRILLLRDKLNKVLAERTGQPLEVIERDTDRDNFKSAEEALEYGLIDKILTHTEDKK
#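 FRET quenching reversal measured ClpP activation: 10 microg/mL B. subtilis ClpP at pH 8 with the FRET-FV decapeptide, read at 430 nm after 320 nm excitation. The 20-min minus 0-min signal was scaled between DMSO/no-enzyme wells and ADEP (5.8 microM final).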
# Sfp inh: qHTS Assay for Inhibitors of Bacillus subtilis Sfp phosphopantetheinyl transferase (PPTase). Biochemical Sfp PPTase activity, qHTS. Potency, µM, for the others: max response, negative = inhibition, hits mostly inhibitors. 3.5% of 310,000 active. AID 1490, 2009; active = well fitted inhibition curve with a large enough effect; inconclusive = small, poorly fitted or top-dose-only effect, or another doubt; inactive = no such curve, though single readings can be large or run the other way;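 note: the enzyme is Sfp with the accession as filed and its product quenches rhodamine fluorescence; potency is the fitted concentration of half-maximal effect; 0% = enzyme reaction without inhibitor and -100% = no enzyme wells; top concentration of the series not given in the record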
#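 Sfp 15 nM + cpd, 15 min RT; start w/ rhodamine-CoA 5 uM, BHQ-2-YbbR 12.5 uM (final); 50 mM Hepes pH 7.6, 10 mM MgCl2, 0.01% NP-40, 0.01% BSA; read 525/598 nm at 0 and 30 min.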
# * hit, by the source's call; u = inconclusive; x = not tested or not shown; & = joins results of further samples; [ ] = another dose, or the depositor's remark.
SMILES,TRPML1 ag,PINK1 expr mod,TRPV1 PAM,Menin MLL FP FL,TRPML1 blocker,ClpP mod,Sfp inh
COc1cc(OCC(N)=O)cc(OC)c1OC,-0.3,0.6%,-7.2,-0.7,5.0,-1.2%,5.8%
O=[N+]([O-])c1ccc(C2CCCC/C2=N/O)c([N+](=O)[O-])c1 (centres undefined),3.1,-2.5%,17.8,0.7,-10.2,0.1%,13.9%
C[C@@H]1CN([C@@H](C)CO)C(=O)CCCn2nncc2CO[C@H]1CN(C)C(=O)c1ccncc1,0.3,-1.6%,x,x,-3.7,0.4%,x
CCOc1ccc(NC(=O)C2CC(C)=C(C)CC2C(=O)O)cc1 (centres undefined),-0.9,2.9%,2.4,-0.3,3.3,1.7%,10.8%
COc1cc(NC(=O)c2noc3c2CCc2ccccc2-3)cc(OC)c1OC,-0.2,9.4%,x,x,11.1,-8.9%,x
S=C(Nc1cccc(Cl)c1)NC1CCCCC1,0.1,4.6%,-5.1,-3.0,5.8,-1.1%,9.2%
Clc1ccc(Cc2ccccn2)cc1,0.2,-0.4%,12.7,x,-2.9,-9.7%,x
Cc1cc(C)c(C)c(S(=O)(=O)N2CCN(c3ccccn3)CC2)c1C,3.0,-0.9%,-19.3,-0.5,15.4,-27.3%,-4.5%
CCOC(=O)c1cnc2c(c(C)nn2CC)c1Cl,0.2,-2.5%,6.3,-0.5,-11.8,-1.5%,7.0%
Cc1c(C(C)C)c(=O)n(-c2ccc(S(=O)(=O)NC3CC3)cc2)n1C,-0.1,-0.5%,-3.6,-0.3,3.2,x,17.5%
COC(=O)c1c(C(=O)OC)c(-c2cccc(C)c2)n2c1CS(=O)(=O)C2,0.1,-1.2%,9.0,-1.0,-12.4,0.9%,10.2%
O=C(COC(=O)c1cccc(F)c1)Nc1ccc(Cl)cn1,-0.4,0.7%,x,x,-1.4,0.5%,x
Cc1cc(CSc2nc(C)cc(=O)[nH]2)c2ncccc2c1,-1.1,2.8%,-11.7,2.9,60.2,-2.9%,-6.0%
Cc1ccc2c(c1)N(C(=O)CCC(=O)N1CCN(c3ccccn3)CC1)CCO2,0.3,0.4%,28.8,3.1,44.1,4.0%,5.0%
COC(=O)n1c(=S)oc2cc(Cl)ccc21,x,x,-0.1,3.1,x,x,25.1µM*
Cc1c(C)c2c(c(C)c1O)CC[C@@](C)(CCC[C@H](C)CCC[C@H](C)CCCC(C)C)O2,0.4,0.5%,x,u,23.6,0.5%,-6.7%&10.0%&-21.1%
O=C(CCc1ccc(S(=O)(=O)N2CCOCC2)cc1)Nc1nc(COc2ccccc2)cs1,1.9,0.4%[38.3 µM],-14.9,2.0,-3.4,-0.5%,-0.2%
Cc1ccc(C)c(OCC(=O)OCc2csc(CC(=O)Nc3ccccc3C)n2)c1,0.8,0.5%,x,x,3.3,0.7%,x
N#CCCN(C(=O)Nc1ccccc1)c1ccccc1,-0.9,-0.5%,1.8,2.5,-5.8,-2.8%,18.3%
Cc1cc(-c2ccccc2)nc(N/N=C/c2ccccc2F)n1,3.2,4.2%,-8.4,3.0,-0.3,x,3.9%
CCC(C)c1ccc(S(=O)(=O)N2CCN3CCCC3C2)cc1 (centres undefined),0.4,-0.5%,-16.8,6.9,-9.9,-2.1%,4.4%
Cc1ccc2c(c1)N(CC(=O)Nc1nccs1)C(=O)CO2,0.7,0.9%,u,x,17.7,-17.3%,x
Cc1cc(C)cc(OCC(=O)NN2Cc3ccccc3C2=N)c1,-0.7,1.4%,2.5,5.1,14.8,0.7%,-4.2%
CSc1nc(C)c(CCO)c(=O)[nH]1,0.6,4.0%,3.4,-1.7,-6.5,x,-0.5%
CC1CCC(NC(=O)CC2Oc3ccccc3NC2=O)CC1 (centres undefined),0.1,-0.5%,2.0,-0.5,2.3,-1.7%,-0.2%
CCCSc1nc(NCc2ccco2)c2c3c(sc2n1)COC(C)(C)C3,3.4,5.4%,0.0,4.2,17.7,-20.8%,-26.8%
Cc1cc(C2=NNC(=Nc3ccc(S(=O)(=O)N4CCOCC4)cc3)SC2)c(C)n1CC1CCCO1 (centres undefined),-0.4,35.5µM*,-0.3,1.0,5.7,x,22.4µM*
O=C(C1CCCCC1)N1C[C@@H](n2cc(C3CC3)nn2)[C@H](O)C[C@@H]1c1ccc(Cl)cc1,3.0,4.1%,x,x,0.9,1.8%,x
Cc1c(Cl)cccc1NC(=O)C1CC2CCC1C2 (centres undefined),4.8,-0.7%,x,x,5.0,1.3%,x
CCOC(=O)c1ccc(CSC(=N)N)o1,x,6.4%,13.6,0.2,x,-0.3%,13.5%
CCC(C)NC(=O)c1ccc(NC(=O)CC2SC(N3CCCC3)=NC2=O)cc1 (centres undefined),0.7,1.7%,1.2,x,-20.5,-2.7%,x
CC(C)(C)c1ccc(OCC(=O)Nc2ccncc2)cc1,-0.7,2.9%,3.1,1.3,19.4,1.0%,10.6%
CC(C)c1ccc(NC(=O)C2CCC(CNC(=O)[C@@H]3Cc4ccccc4CN3)CC2)cc1 (some centres undefined),1.5,4.0%,-18.3,0.1,-3.1,-1.2%,13.8%
COc1cccc(NS(=O)(=O)c2ccc(C)c(C(=O)N3CCCCC3)c2)c1,-0.1,-0.1%,-6.1,-0.3,-1.0,2.7%,13.2%
COC(=O)C1=CN(Cc2cccs2)C=C(C(=O)OC)C1c1cccc(O)c1,2.6,4.6%,11.6,1.9,5.0,x,-0.9%
Cc1ccc2c(c1)-c1c(cnn1CC(=O)N1CCN(c3ccccc3F)CC1)CO2,1.0,1.1%,x,x,-3.4,-0.1%,x
CCCn1c(SCC(=O)N2CCCc3ccccc32)nc2c1c(=O)n(C)c(=O)n2C,-1.0,38.1%[38.3 µM],-0.9,-1.1,-4.4,0.4%,-2.9%
CC(=O)c1ccc(NC(=O)c2ccc3snnc3c2)cc1,-0.3,2.8%,-10.3,-1.0,1.1,-3.2%,-2.7%
Cc1cc(C)c(S(=O)(=O)NCC(c2ccco2)S(=O)(=O)c2ccccc2)c(C)c1 (centres undefined),2.7,0.4%,x,x,-29.3,3.9%,x
Cc1cccc(N2CCN(c3ncnc4c3cnn4-c3ccc(Cl)cc3)CC2C)c1 (centres undefined),0.3,1.2%,x,x,-10.1,-6.3%,x
CC(=O)c1cccc(NS(=O)(=O)c2ccc3c(c2)N(C(C)=O)CCO3)c1,-1.1,0.2%,-5.7,x,-15.6,-1.6%,14.0%
COc1ccc(Br)c(C(=O)NCCC(C)C)c1,-0.9,-1.6%,-9.0,x,-18.4,-1.0%,-1.9%
Cc1cc(Cl)ccc1OCC(=O)N(Cc1ccco1)Cc1ccccc1F,3.6,2.2%,x,x,38.9,-1.4%,x
CCOC(=O)N1CCN(C(=O)c2cc3c(-c4ccc(Cl)cc4)nn(C)c3s2)CC1,-0.6,5.5%,x,-2.8,4.9,2.9%,1.2%
CCCNC(=O)c1onc(CSc2ccc(Cl)cc2)c1C(=O)NCCC(C)C,2.7,28.0%,x,x,12.1,-0.7%,x
CCN(CC)CCN1C(=O)C(=O)/C(=C(/O)c2ccc(OC(C)C)cc2)C1c1cccs1 (centres undefined),0.5,-0.2%,20.4,3.2,-30.0,x,7.6%
CCOC(=O)c1ccc(NC(=O)CC2SCCNC2=O)cc1 (centres undefined),1.0,-0.8%,-0.7,0.9,-6.4,-2.6%,7.5%
Cc1ccccc1NC(=O)CSCC(=O)Nc1ccccc1C,-1.1,-3.2%,8.0,-2.5,-1.8,1.4%,2.3%
COc1cc2ncc(C(=O)c3ccc(C)cc3)c(N3CCCCC3)c2cc1OC,-0.7,2.1%,x,x,9.7,-0.4%,x
COc1ccc(-c2csc(NC(C)c3nc4cc(Cl)c(N5CCCCC5)cc4n3CCCO)n2)cc1 (centres undefined),0.4,0.9%,x,x,-3.5,-1.6%,x
Cc1cccc(-c2ncc(CN3CCCC(CO)(Cc4cccc(Cl)c4)C3)cn2)c1 (centres undefined),-0.6,11.7%,14.8,6.6,-20.7,-0.7%,7.9%
CC(=O)Nc1cccc(NC(=O)C2CCCO2)c1 (centres undefined),-0.4,1.7%,x,x,7.3,0.4%,x
O=c1[nH][nH]c(=O)n1-c1ccccc1,0.7,4.1%,5.4,-0.2,-14.7,x,-2.6%
CCOC(=O)c1c(NC(=O)CSc2nc3cc(Cl)ccc3c(=O)n2Cc2ccco2)sc(C(=O)N(C)C)c1C,0.2,11.5%,4.2,8.4,-5.2,x,u
O=C(NC(=S)N(CCO)Cc1ccccc1)c1ccc(F)cc1Cl,1.5,-3.2%,-2.1,3.2,-19.6,-1.5%,9.1%
CC(=O)N1CCN(c2nnc(-c3ccccc3)c3ccccc23)CC1,-0.5,-0.6%,-27.2,-3.4,19.3,2.1%,19.8%
COc1ccc(CCNC2=NCC(C)S2)cc1 (centres undefined),0.2,-1.7%,6.8,-0.3,16.3,-0.4%,16.6%
COc1ccc(-c2[nH]c3c(c2-c2c(-n4cccc4)n(C)c(=O)n(C)c2=O)c(=O)n(C)c(=O)n3C)cc1,-0.5,0.3%,x,x,21.9,-0.3%,x
Cc1ccc(S(=O)(=O)N2[C@@H](c3cccc(Cl)c3)C(C(=O)O)=CC[C@H]2c2ccc(Cl)cc2)cc1,0.3,0.5%,u,x,8.8,-2.8%,x
CCn1c(C)cc(/C=C2\SC(=O)N(CC(=O)Nc3ccc(C)c(C)c3)C2=O)c1C,-0.5,3.6%,20.9,20.0,6.3,-11.5%,u
O=C(N/N=C/c1ccc(Cl)cc1Cl)Nc1ccccc1,1.0,u,-4.2,4.5,10.2,-0.5%,-5.8%
C/C(=N/NC(=O)CN1CCN(S(=O)(=O)c2ccc(C)cc2)CC1)c1cccc(O)c1,x,2.6%,1.3,4.1,x,-3.2%,12.3%
O=C(Cc1ccccc1)Nc1ccc(S(=O)(=O)N2CCCC2)cc1,0.7,-1.8%,1.8,u,0.0,x,-3.5%
